CDC25B-CDK2 inh: human CDC25B-CDK2/CyclinA binding inhibition | HTRF CDC25B-CDK2/CyclinA binding, anti-His/anti-Flag; active compounds read high | P30305+P24941 | z-score (no concentration beside the values) | 94,000 compounds, 0.72% hits;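 note: score is relative to mean and SD of negative controls; strong numbers were not always called active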
HIV TAR-Tat: HIV-1 TAR-Tat binding disruption; HIV-1 TAR RNA, Tat peptide displacement FRET; active compounds read high; z-score (concentration not given with the values); 100,000 compounds, 0.6% hits;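 note: score is relative to mean and SD of negative controls; some compounds called inactive have numbers as strong as hits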
* marks the source's active call; other numbers are inactive results.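 Rule for the calls: active = z-score from 3 up in half or more of its runs; inactive = the rest.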

Results for CCN(CC)CCn1c(C)nc2c(sc3nc4c(cc32)COC(C)(C)C4)c1=O ?
HIV TAR-Tat: 0.6

Results for CCOc1ccc(Nc2cc(C)c3c(O)cccc3n2)cc1 ?
CDC25B-CDK2 inh: -0.18; HIV TAR-Tat: -1.5

Results for CSc1noc(-c2ccc(Cl)cc2)c1C(=O)NC(=O)Nc1ccccc1Cl ?
CDC25B-CDK2 inh: -2.3

Results for COc1ccc(C(=O)c2cnc3ccccc3c2S(=O)(=O)c2ccc(OC)cc2)cc1 ?
CDC25B-CDK2 inh: -1.2; HIV TAR-Tat: -1.8

What do the screens show for `CC(C)CN(CC(C)C)C(=O)C1CCN(S(=O)(=O)c2ccc3c(c2)CCCC(=O)N3)CC1`?
HIV TAR-Tat: 0.21

What do the screens show for `CC(C)(C)c1cc(/C=C(\C#N)C(N)=S)cc(C(C)(C)C)c1O`?
CDC25B-CDK2 inh: -0.67

What do the screens show for `Cc1c(C(=O)NCCN2CCCCC2C)sc2nc3n(c(=O)c12)CCCCC3` (configuration not stated)?
HIV TAR-Tat: 0.81

Results for O=C(CSc1nc2c(c(=O)n1Cc1ccccc1)SCC2)NCC1CCCO1 (configuration not stated) ?
HIV TAR-Tat: 1.1

What do the screens show for `CCc1nc(-c2csc(S(=O)(=O)N3CCC(C(=O)NCc4cccs4)CC3)c2)no1`?
HIV TAR-Tat: 1.8

Results for COc1cccc(/C=C/N2CCCC2)c1[N+](=O)[O-] ?
CDC25B-CDK2 inh: -1.1

How did O=C(NCCNc1nccc(C(F)(F)F)n1)c1ccco1 do in these assays?
CDC25B-CDK2 inh: -0.55

Results for CN1C(=O)Cc2cc(NC(=O)CC(C)(C)C)ccc21 ?
HIV TAR-Tat: 0.68

How did Cc1ccc2nc(N(CCCN(C)C)C(=O)c3ccc4ncsc4c3)sc2c1 do in these assays?
HIV TAR-Tat: 1.3

How did CCOc1ccc2c(c1)c(=O)c(S(=O)(=O)c1ccc(F)cc1)cn2C do in these assays?
CDC25B-CDK2 inh: 1.5; HIV TAR-Tat: -0.57

Results for O=C(CSc1nnc2ccc3ccccc3n12)Nc1cccc(Cl)c1 ?
CDC25B-CDK2 inh: -2.5; HIV TAR-Tat: 0.23

Results for CCN1C(=O)N(CC)C2C1NC(=O)N2C (configuration not stated) ?
CDC25B-CDK2 inh: -0.87; HIV TAR-Tat: 1.6

What do the screens show for `O=C(c1ccc(CNc2c(NC3CCCC3)c(=O)c2=O)cc1)N1CCc2ccccc21`?
CDC25B-CDK2 inh: -0.79; HIV TAR-Tat: 0.76

Results for CCOc1ccc(NC(=O)c2c(NC(=O)c3ccco3)sc3c2CCC3)cc1 ?
CDC25B-CDK2 inh: -0.53

What do the screens show for `Cc1ccc2oc(=O)c3cc(C(=O)Nc4ccc5c(C)cc(=O)oc5c4)sc3c2c1`?
CDC25B-CDK2 inh: 0.4

How did Cc1ccc(S(=O)(=O)N2CCN(Cc3cc(C(C)C)ccc3O)CC2)cc1 do in these assays?
CDC25B-CDK2 inh: -0.16; HIV TAR-Tat: 0.15

How did CC(=O)NCCCCCc1nc2ccccc2n1CCC(C)C do in these assays?
CDC25B-CDK2 inh: -1.6; HIV TAR-Tat: 1.1

How did c1ccc(-c2nc(N3CCOCC3)c3ccccc3n2)cc1 do in these assays?
CDC25B-CDK2 inh: 1.1; HIV TAR-Tat: 0.78

How did CCOCCCNc1nc2c(S(=O)(=O)c3ccc(CC)cc3)nnn2c2ccccc12 do in these assays?
CDC25B-CDK2 inh: -0.77; HIV TAR-Tat: 1.6

What do the screens show for `CC1CCc2c(CCNC(=O)Nc3ccc(Cl)cc3)csc2C1` (configuration not stated)?
HIV TAR-Tat: 0.91

What do the screens show for `Cc1c(NC(=O)CSc2ncn[nH]2)c(=O)n(-c2ccccc2)n1C`?
CDC25B-CDK2 inh: -0.57; HIV TAR-Tat: 0.28

What do the screens show for `COc1ccc2nc(SCc3ccc(C)cc3)[nH]c2c1`?
CDC25B-CDK2 inh: -2

Results for CN1CCN(c2ccccc2NC(=O)c2noc3c2CSc2ccccc2-3)CC1 ?
CDC25B-CDK2 inh: -0.69; HIV TAR-Tat: 1.1

Results for CC1CCN(C(=O)CCc2nc(CN3CCN(S(=O)(=O)c4cccs4)CC3)no2)CC1 ?
HIV TAR-Tat: -0.72

How did CC(C)CCNc1nc(N)c([N+](=O)[O-])c(N2CCC(C)CC2)n1 do in these assays?
HIV TAR-Tat: 0.17

What do the screens show for `Cc1noc2ncnc(N3CCCC(C(=O)NC(C)C)C3)c12` (configuration not stated)?
HIV TAR-Tat: 2.5

Eleven structures from above, ordered by heavy-atom count, high to low.
What do the screens show for `CC(C)CN(CC(C)C)C(=O)C1CCN(S(=O)(=O)c2ccc3c(c2)CCCC(=O)N3)CC1`?
HIV TAR-Tat: 0.21

Results for COc1ccc(C(=O)c2cnc3ccccc3c2S(=O)(=O)c2ccc(OC)cc2)cc1 ?
CDC25B-CDK2 inh: -1.2; HIV TAR-Tat: -1.8

What do the screens show for `CCc1nc(-c2csc(S(=O)(=O)N3CCC(C(=O)NCc4cccs4)CC3)c2)no1`?
HIV TAR-Tat: 1.8

What do the screens show for `Cc1c(C(=O)NCCN2CCCCC2C)sc2nc3n(c(=O)c12)CCCCC3` (configuration not stated)?
HIV TAR-Tat: 0.81

Results for O=C(CSc1nnc2ccc3ccccc3n12)Nc1cccc(Cl)c1 ?
CDC25B-CDK2 inh: -2.5; HIV TAR-Tat: 0.23

What do the screens show for `CC1CCc2c(CCNC(=O)Nc3ccc(Cl)cc3)csc2C1` (configuration not stated)?
HIV TAR-Tat: 0.91

What do the screens show for `Cc1noc2ncnc(N3CCCC(C(=O)NC(C)C)C3)c12` (configuration not stated)?
HIV TAR-Tat: 2.5

How did O=C(NCCNc1nccc(C(F)(F)F)n1)c1ccco1 do in these assays?
CDC25B-CDK2 inh: -0.55

What do the screens show for `COc1ccc2nc(SCc3ccc(C)cc3)[nH]c2c1`?
CDC25B-CDK2 inh: -2

Results for CN1C(=O)Cc2cc(NC(=O)CC(C)(C)C)ccc21 ?
HIV TAR-Tat: 0.68

Results for COc1cccc(/C=C/N2CCCC2)c1[N+](=O)[O-] ?
CDC25B-CDK2 inh: -1.1

Following part:
What do the screens show for `O=C(Nc1ccccc1)N1CCC(CN2CCOCC2)CC1`?
HIV TAR-Tat: 0.45

Results for CCCN1C(SCC(=O)NC2CCCC2)=NS(=O)(=O)c2ccccc21 ?
HIV TAR-Tat: 0.69

How did Cc1ccc(-c2cc(C(=O)N(Cc3ccc(C(C)(C)C)cc3)C3CCS(=O)(=O)C3)no2)cc1 (configuration not stated) do in these assays?
CDC25B-CDK2 inh: 0.17; HIV TAR-Tat: 1.6

Results for COc1cc(NC(=O)c2nn3c(C(F)(F)F)cc(-c4cccs4)nc3c2Cl)cc([N+](=O)[O-])c1 ?
CDC25B-CDK2 inh: -3.7

How did O=C(Nc1ccc(S(=O)(=O)Nc2nccs2)cc1)c1nn(-c2cccc(Cl)c2)ccc1=O do in these assays?
CDC25B-CDK2 inh: 2.1; HIV TAR-Tat: 1.1

How did Cc1ccc(C(=O)CC2(O)C(=O)N(Cc3ccccc3)c3ccccc32)c(C)c1 (configuration not stated) do in these assays?
CDC25B-CDK2 inh: -0.65

Results for CC1CCC(NC(=O)C2(C)Cn3c(ccc3-c3ccco3)C(=O)N2CC2CCCO2)CC1 (configuration not stated) ?
HIV TAR-Tat: -7.2

How did CCOC(=O)c1c(S(=O)(=O)Nc2ccccn2)c(C)n(C)c1C do in these assays?
HIV TAR-Tat: 1.1

Results for CCOC(=O)c1c(C)oc2nc(C)nc(N3CCc4ccccc4C3)c12 ?
HIV TAR-Tat: 1.4

What do the screens show for `O=C(CSc1ssc(=S)c1-c1ccccc1)c1cccc([N+](=O)[O-])c1`?
CDC25B-CDK2 inh: 0.93

What do the screens show for `NC(=O)C1(N2CCCCC2)CCN(C2CC(=O)N(c3ccccc3F)C2=O)CC1` (configuration not stated)?
CDC25B-CDK2 inh: -1.6

How did COc1ccc(S(=O)(=O)[C@H]2CS(=O)(=O)C[C@@H]2N2CCN(C/C=C/c3ccccc3)CC2)cc1 do in these assays?
CDC25B-CDK2 inh: -0.43; HIV TAR-Tat: 1.9

What do the screens show for `COCC1=C(C(=O)OC)C(c2ccco2)n2ncnc2N1` (configuration not stated)?
CDC25B-CDK2 inh: 0.12; HIV TAR-Tat: -1.4

What do the screens show for `CCc1nnc2c3ccccc3nc(Nc3cccc(F)c3)n12`?
HIV TAR-Tat: 2.1

How did CSc1ccc(-c2noc(C3CCCN(S(=O)(=O)c4ccc(C)c(C)c4)C3)n2)cc1 (configuration not stated) do in these assays?
HIV TAR-Tat: 1.9

Results for Cc1ccc2nc(-n3nc(C)c4c3NC(=O)CC4c3cccnc3)sc2c1 (configuration not stated) ?
HIV TAR-Tat: 2

What do the screens show for `COC(=O)C1=C(C)Nc2nc3ccccc3n2C1c1ccc(C)cc1` (configuration not stated)?
CDC25B-CDK2 inh: -2.6; HIV TAR-Tat: 1.7

What do the screens show for `COC(=O)C1=C(OC(=O)c2ccc(Cl)cc2)c2ccccc2S(=O)(=O)N1C`?
CDC25B-CDK2 inh: -1.1; HIV TAR-Tat: 0.52

How did Nc1nonc1-c1nc2ccccc2n1CC(=O)Nc1ccc(F)c(Cl)c1 do in these assays?
CDC25B-CDK2 inh: 1.1; HIV TAR-Tat: 0.83

Results for O=C(c1cc(N2C(=O)C3C4CCC(C4)C3C2=O)ccc1Cl)N1CCN(c2ccc(F)cc2)CC1 (configuration not stated) ?
CDC25B-CDK2 inh: -2.1

Results for Cc1cc(-c2ccc(=O)[nH]n2)cc(S(=O)(=O)NCC2CCCO2)c1C (configuration not stated) ?
HIV TAR-Tat: 1.6

What do the screens show for `COCCNC(=O)Cn1cc(C(=O)c2ccco2)c2ccccc21`?
CDC25B-CDK2 inh: -0.02; HIV TAR-Tat: 1.5

How did Cc1ccc(C2NCCc3c2[nH]c2ccccc32)cc1 (configuration not stated) do in these assays?
CDC25B-CDK2 inh: -1.5; HIV TAR-Tat: 1.2

How did COC(=O)c1ccccc1NC(=O)CN(c1cccc(C(F)(F)F)c1)S(C)(=O)=O do in these assays?
CDC25B-CDK2 inh: 0.78

How did CCOC(=O)C1CCCN(c2ncnc3onc(-c4cc(F)cc(F)c4)c23)C1 (configuration not stated) do in these assays?
HIV TAR-Tat: 1.3

What do the screens show for `Fc1ccccc1-c1noc(N2CCc3ccccc32)n1`?
HIV TAR-Tat: 0.9

What do the screens show for `Cc1nn(CC(=O)N2CCCC2)c(C)c1S(=O)(=O)N1CCC(C(=O)N2CCN(C)CC2)CC1`?
HIV TAR-Tat: 0.09

Results for COc1ccc(C2Oc3ccccc3C3CC(c4ccccc4O)=NN32)cc1O (configuration not stated) ?
CDC25B-CDK2 inh: -0.91; HIV TAR-Tat: 2.4

Results for O=C(Nc1cccc(F)c1)c1cccc([N+](=O)[O-])c1 ?
CDC25B-CDK2 inh: 0.45

What do the screens show for `N#CCC(=O)NNC(=S)NC1CCCCCC1`?
CDC25B-CDK2 inh: -0.12

What do the screens show for `COC(=O)COc1nc(C)nc2c(-c3ccccc3)noc12`?
CDC25B-CDK2 inh: -0.52; HIV TAR-Tat: -0.35

What do the screens show for `CCOC(=O)C1=C(C)Nc2nnnn2C1c1ccccn1` (configuration not stated)?
CDC25B-CDK2 inh: -0.44; HIV TAR-Tat: 1.1

What do the screens show for `NC(=O)c1ccc(-n2nnnc2SCc2ccc(F)cc2)cc1`?
CDC25B-CDK2 inh: 0.24; HIV TAR-Tat: 0.61

Results for CNCc1nnc(-c2ccccc2)o1 ?
CDC25B-CDK2 inh: -1.7; HIV TAR-Tat: 0.84

What do the screens show for `CC(=O)Nc1c2n(c3ccc(F)cc13)CC(C)(C(=O)NC1CCCC1)N(CCCOC(C)C)C2=O` (configuration not stated)?
HIV TAR-Tat: 0.31

Results for Cc1cccc(Nc2ncnc3onc(-c4ccc(F)cc4)c23)c1C ?
HIV TAR-Tat: 0.28

Results for O=c1[nH]c(CSc2ccccn2)nc2ccccc12 ?
CDC25B-CDK2 inh: -0.12

Results for N#CCCO/N=C/c1ccco1 ?
CDC25B-CDK2 inh: -0.19

How did CCOC(=O)Cc1csc(NC(=O)C(C)(C)C)n1 do in these assays?
CDC25B-CDK2 inh: 0.25; HIV TAR-Tat: -0.57

Results for O=C(CCc1nnc2ccc(N3CCCCC3)nn12)Nc1cccnc1 ?
HIV TAR-Tat: -0.01

Results for COc1cc(NC(=O)NC2COc3ccccc3C2)cc(OC)c1 (configuration not stated) ?
HIV TAR-Tat: 0.15

How did Cc1ccc(C(=O)Nc2cnc3sccn3c2=O)cc1 do in these assays?
CDC25B-CDK2 inh: -0.55; HIV TAR-Tat: 0.47

How did Cn1c(=O)n(Cc2ccccc2)c(=O)c2c1nc(N1CCOCC1)n2Cc1ccccc1 do in these assays?
CDC25B-CDK2 inh: -0.29

How did COc1ccccc1NS(=O)(=O)c1c(C)nc2scc(C)n2c1=O do in these assays?
CDC25B-CDK2 inh: -1.3; HIV TAR-Tat: 0.57

What do the screens show for `COc1ccc(S/C(=N/N(C)C)c2cc(C(F)(F)F)cc(C(F)(F)F)c2)cc1OC`?
CDC25B-CDK2 inh: -1.2

How did COc1ccccc1-c1noc(C2CCCN(S(=O)(=O)c3ccc(Br)cc3)C2)n1 (configuration not stated) do in these assays?
HIV TAR-Tat: 1.8

How did O=c1[nH]cc(O)n1-c1cccc2ncccc12 do in these assays?
CDC25B-CDK2 inh: -1.1; HIV TAR-Tat: 0.16

Results for CCCC1Cc2[nH]c(=O)c(C(=O)O)cc2CO1 (configuration not stated) ?
CDC25B-CDK2 inh: 0.32

How did COc1cc(S(=O)(=O)N2CCC(C)CC2)ccc1Cl do in these assays?
CDC25B-CDK2 inh: -0.56; HIV TAR-Tat: -0.01

What do the screens show for `N#Cc1c(NC(=O)c2ccc(Cn3cc(Cl)cn3)cc2)sc2c1CCCC2`?
CDC25B-CDK2 inh: 0.75; HIV TAR-Tat: -0.7

Source: PubChem BioAssay (Center for Chemical Genomics, University of Michigan)

This is a random part of the collection. Share with any hit: about 0.94%.
